# Cruzain inh Det: cruzain (T. cruzi) inhibition with detergent; P25779; purified cruzain, Z-FR-AMC fluorescence, 0.01% Triton; Potency, µM, without a hit: max response, negative = inhibition, hits mostly inhibitors; 200,000 compounds, 0.43% hits; AID 1478;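 also: plate controls were neutral wells for no effect and buffer without enzyme for full effect; nearly all actives have a fitted effect of over 40% in size; top concentration of the series not given in the record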
# Target sequence (P25779 123-467 limits assumed): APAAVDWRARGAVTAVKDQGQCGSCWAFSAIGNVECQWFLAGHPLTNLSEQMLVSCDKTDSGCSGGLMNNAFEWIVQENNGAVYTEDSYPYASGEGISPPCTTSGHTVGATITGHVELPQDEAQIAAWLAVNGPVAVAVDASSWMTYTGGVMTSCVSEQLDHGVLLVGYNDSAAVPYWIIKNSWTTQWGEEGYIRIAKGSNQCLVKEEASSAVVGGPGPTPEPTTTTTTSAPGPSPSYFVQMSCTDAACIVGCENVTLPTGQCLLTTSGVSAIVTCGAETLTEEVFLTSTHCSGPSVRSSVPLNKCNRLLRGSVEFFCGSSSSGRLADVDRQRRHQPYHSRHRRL
#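 Cysteine protease activity tested under reducing, mildly acidic conditions (100 mM sodium acetate pH 5.5, 5 mM DTT) plus 0.01% Triton X-100. Cruzain 1.5 nM; substrate Z-FR-AMC 2 uM; 15 min compound preincubation at room temperature.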
# RE007 growth inh: less growth of the S. pombe RE007 Vpr strain. S. pombe RE007 Vpr strain, BacTiter-Glo ATP luminescence, 24 h; control for the full effect not named in the record. Potency, µM (top dose mostly 92.2 µM), for inactives: at the highest dose activity change, negative = less growth. 360,000 compounds, 0.21% hits. AID 651644; active = well fitted falling curve with a large enough effect; inconclusive = small, poorly fitted or top-dose-only effect; inactive = no such curve, though single readings can be large or run the other way;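 also: % is scaled to controls: 0 for no effect and ±100 for the full control effect; nearly all actives have a fitted effect of over 50% in size; the assay follows cell death caused by Vpr and the record does not say whether a fall means rescue or toxicity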
#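 Fission yeast strain RE007, carrying one chromosomally integrated HIV-1 vpr copy, was seeded at OD 0.01 in PMG+AL medium with 23 nL pinned compound. After 24 h at 30 °C and 99% humidity, viability was read by BacTiter-Glo luminescence.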
# Lassa entry inh: inhibitors of Lassa virus binding or cell entry | Lassa virus pseudotype entry inhibition, cell reporter; control for the full effect not named in the record | Potency, µM (doses to about 37.9 µM), inactives show top-dose activity change, negative = inhibition, usual class: inhibitors | 300,000 compounds, 1.2% hits | AID 540256; active means well fitted inhibition curve with a large enough effect; inconclusive means small, poorly fitted or top-dose-only effect, or effect the other way; inactive means flat fitted curve, though single readings scatter; tested in HEK293 cells; also: % is scaled to controls: 0 for no effect and ±100 for the full control effect; nearly all actives have a fitted effect of over 50% in size; luciferase read-out
# 2A StopGo: lowers the luciferase signal of an FMDV 2A StopGo reporter; human cells with a luciferase reporter of 2A StopGo recoding; control for the full effect not named in the record; Potency, µM (doses to about 57.9 µM), without a hit: top-dose signal change, negative = less light; 410,000 compounds, 1.2% hits; active = well fitted falling curve with a large enough effect; inconclusive = small, poorly fitted or top-dose-only effect; inactive = no such curve, though single readings can be large or run the other way; tested in HEK293T cells; also: % is scaled to controls: 0 for no effect and ±100 for the full control effect; nearly all actives have a fitted effect of over 45% in size; luciferase light after 4 h
# Marburg entry inh: Marburg virus entry inhibition | Marburg virus pseudotyped entry inhibition, cell reporter; control for the full effect not named in the record; about a third of the inactives were read at about 46 µM | Potency, µM (titrated, usually from 37.8 µM), for inactives: at the top dose activity change, negative = inhibition, usual class: inhibitors | 300,000 compounds, 1.8% hits; active = well fitted inhibition curve with a large enough effect; inconclusive = small, poorly fitted or top-dose-only effect, or effect the other way; inactive = flat fitted curve, though single readings scatter; tested in HEK293 cells; about a fifth of its hits are not listed in these tables; also: % is scaled to controls: 0 for no effect and ±100 for the full control effect; luciferase read-out
# NS1 inh: inhibitors of influenza NS1 protein function; Potency, µM (titrated, usually from 46.1 µM), for the others: at the highest dose activity, positive = more growth; 270,000 compounds, 0.4% hits; S. cerevisiae slowed by influenza A NS1, growth recovery by OD600; active means well fitted rising curve with a large enough effect; inconclusive means small, poorly fitted or top-dose-only effect; inactive means no such curve, though single readings can be large or run the other way; also: nearly all actives have a fitted effect of over 50% in size
#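 Recovery from NS1-induced slow growth read by OD600 in budding yeast switched to galactose assay medium (pH 6.0, -URA) at 1:100 dilution. Compound 23 nl per well; the matching strain lacking NS1 serves as control.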
# SARS PLP yeast: blocks SARS-CoV papain-like protease in a yeast assay. AID 485353. Potency, µM (doses to about 32.9 µM), inactives show top-dose activity, positive = growth rescue. S. cerevisiae expressing SARS-CoV PLpro, growth rescue; control for the full effect not named in the record. 330,000 compounds, 0.19% hits; active means well fitted rising curve with a large enough effect; inconclusive means small, poorly fitted or top-dose-only effect; inactive means no such curve, though single readings can be large or run the other way; also: 0% is about no effect; nearly all actives have a fitted effect of over 55% in size; growth read by luminescence after 48 h
# Cruzain inh noDet: blocks cruzain activity in detergent-free assay; P25779; purified cruzain, Z-FR-AMC fluorescence, no detergent; Potency, µM, for the others: max response, negative = inhibition, hits mostly inhibitors; 200,000 compounds, 2.3% hits;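 also: plate controls were enzyme without inhibitor for no effect and buffer without enzyme for full effect; nearly all actives have a fitted effect of over 40% in size; top concentration of the series not given in the record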
#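 Detergent-free condition (0.00005% Triton X-100) in acetate buffer pH 5.5 with DTT. 1.5 nM enzyme and compound were pre-mixed 15 min, then 2 uM Z-FR-AMC substrate added; reaction progress from fluorescence change between first and third reads (60 s).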
# Active calls of the source: *; ? = inconclusive; . = not tested or not shown; & = joins results of further samples; [ ] = dose if it differs, or a comment. Unless noted, calls follow the shape of the dose curve; as a rule, active = well fitted curve in the direction sought with a large enough effect; inconclusive = small, poorly fitted or top-dose-only effect, or another doubt; inactive = no such curve, though single readings can be large; an effect the other way counts as inactive or inconclusive. Potency is read from the fitted curve at half-maximal effect.
SMILES,Cruzain inh Det,RE007 growth inh,Lassa entry inh,2A StopGo,Marburg entry inh,NS1 inh,SARS PLP yeast,Cruzain inh noDet
COc1cc(Cl)c(C)cc1NC(=O)CSc1nc2ccccc2o1,-2.5%,-1.8%,-2.1%,-19.3%,?,4.5%,-1.9%,-13.6%
CC(NC(=O)c1cccnc1)C(=O)O (stereo not given),.,-14.0%,.,2.2%,.,-0.9%,0.9%,.
CCc1ccccc1NS(=O)(=O)c1ccc2c(c1)CCN2C(=O)C1CC1,-1.1%,.,-14.2%[46.1 µM],-8.5%,1.3%[46.1 µM],.,.,-8.9%
COC(c1ccccc1)c1nnc(CCC(=O)N(C)CCOc2ccccc2)o1 (stereo not given),.,13.2%,?,35.8%[activator],-27.6%[46.1 µM],-6.7%,-0.1%,.
O=C(NCC(=O)N1CCCCC1)c1ccc(Cl)cc1Cl,2.5%,3.0%,22.3%,0.0%,-1.8%[46.1 µM],7.3%,-9.4%,4.6%
COc1ccc(Cc2nc3ccc(C(=O)NCc4ccccc4C)cc3o2)cc1,-6.0%,.,?,-13.5%,.,.,.,1.0%
O=C(c1ccccc1)N1N=C(c2ccc(F)cc2)CC1c1ccc(F)cc1 (stereo not given),.,2.3%,-14.8%[46.1 µM],-11.9%,?,.,.,.
Cc1ccc(CNC(=O)CC2Oc3ccccc3NC2=O)cc1 (stereo not given),-1.9%,.,.,-7.0%,15.3%[46.1 µM],.,.,-0.6%
COc1ccc(Nc2nc(-c3cc4cccc(OC)c4oc3=O)cs2)cc1,0.3%,9.0%,?,0.5%,11.0%,15.6%,8.9%,?
CCn1c(CN2CCN(C(=O)c3ccco3)CC2)nc2c1c(=O)n(C)c(=O)n2C,0.5%,-16.1%,-1.3%,?,-5.4%,-1.0%,1.9%,-4.3%
Cc1c(NC(=O)c2cnn3c2NC(c2ccc(Br)cc2)CC3C(F)(F)F)c(=O)n(-c2ccccc2)n1C (stereo not given),-5.3%,-21.6%,-1.7%,-22.5%,9.0%,-1.4%,4.9%,?
COc1ccc(CCNC(=O)C(=O)NCCOc2ccccc2)cc1OC,1.7%,-8.0%,-3.9%,-25.8%,?,-27.2%,3.0%,7.3%
Cc1ccc(S(=O)(=O)N(C)CC(=O)OCC(=O)N2CCCC2=O)cc1,.,-1.7%,3.8%,-5.3%,-9.3%,-23.4%,-2.5%,.
O=[N+]([O-])c1ccc(Nc2ccc(N3CCOCC3)cc2)c([N+](=O)[O-])c1,.,-19.7%,?,-8.0%,-0.4%[46.1 µM],.,-1.2%,.
C=CCC(C#Cc1ccccc1)N(C)C (stereo not given),3.3%,-4.9%,2.4%,-10.7%,0.4%,-5.6%,-4.1%,-1.1%
CC[C@]12c3[nH]c4ccc(OC)cc4c3CCN1C(=O)C(CC(=O)NCc1ccc(OC)c(OC)c1)C[C@@H]2C(=O)N1CCN(C(=O)C2CC2)CC1 (stereo not given in full),.,-4.9%,.,-21.2%,0.0%,.,1.8%,.
O=C(CSc1n[nH]c(-c2ccncc2)n1)c1ccccc1,1.4%,-5.9%,?,.,6.3%,-7.0%,-2.2%,6.0%
CC1(C)CC(=O)C(CC2CCCCC2=O)C(=O)C1 (stereo not given),.,8.9%,?,-12.1%,21.7%[46.1 µM],-3.1%,0.5%,.
NNC(=O)c1ccc(Cn2cc(Cl)cn2)cc1,0.3%,1.7%,-13.9%,-16.3%,10.9%,4.8%,-10.7%,-7.4%
c1ccc(Cc2nc3ccccc3n2Cc2ccccc2)cc1,-4.2%,34.1%,-3.7%,?,?,-65.9%,-20.6%,-8.4%
Cc1cc(C(=O)N/N=C/c2ccc([N+](=O)[O-])s2)n[nH]1,.,-19.9%,?,-12.0%,?,-37.6%,-3.5%,.
Cc1cc(NS(=O)(=O)c2ccc(NC(=O)CSc3nc4sc(C)c(C)c4c(=O)[nH]3)cc2)no1,.,3.0%,10.4%,-9.3%,7.8%,.,-3.9%,.
Cn1c(Cc2ccccc2)nnc1SCC(=O)Nc1ccc(N2CCOCC2)cc1,.,0.1%,2.0%,6.5%,-0.9%[46.1 µM],2.9%,1.3%,.
COc1cc(-c2nc(CN3CCN(CC(C)C)C(=O)[C@@H]3C)c(C)o2)ccc1F,.,-2.3%,-20.4%[46.1 µM],-7.9%,?,3.4%,0.1%,.
FC(F)(F)c1ccc2nnc(-c3c(Cl)cccc3Cl)n2c1,6.4%,2.9%,-0.9%,-20.3%,-18.0%,0.1%,3.3%,0.6%
COc1ccc(NC(=O)CN(C)S(=O)(=O)c2cccc3cccnc23)cc1,-1.2%,3.8%,.,-13.3%,.,-12.3%,-2.4%,1.6%
O=C(Nc1ccccc1)O/N=C1\CCCCC1c1ccc([N+](=O)[O-])cc1[N+](=O)[O-] (stereo not given),2.3%,-21.6%,4.7%,-17.1%,-21.8%[46.1 µM],16.1%,-5.3%,-24.5%
Cc1ccc(NC(=O)c2ccc([N+](=O)[O-])o2)cc1S(=O)(=O)N1CCOCC1,.,-9.2%,?,-25.0%,?,.,-2.5%,.
CCOC(=O)N1CCN(C(=O)CN(C)S(=O)(=O)c2ccc3c(c2)c(=O)n(C)c(=O)n3C)CC1,.,4.1%,8.0%[46.1 µM],-8.9%,-20.6%[46.1 µM],.,-4.2%,.
CCc1ccc2c(c1)/C(=C/C(=O)c1cccs1)C(=O)N2,0.2%,-19.6%,?,20µM*,?,-204.7%,-50.8%,?
Cc1cccc(N(C)S(=O)(=O)c2nnc(NC(=O)C(C)Oc3ccccc3)s2)c1 (stereo not given),-11.2%,.,?,-20.5%,.,.,.,13.6%
CCCCNc1nc(Oc2ccc(OCCC)nn2)nc(N(C)C)n1,-1.1%,.,-4.6%[46.1 µM],-19.7%,0.5%[46.1 µM],.,.,-2.8%
Cc1ccsc1C(=O)OCC(=O)c1cc2ccccc2o1,-4.4%,?,-13.3%,.,4.6%,-6.4%,-11.9%,2.7%
NC(=O)c1oc2ccccc2c1NC(=O)c1nc2ccccc2s1,6.5%,-8.3%,-0.2%,34.3%[activator],?,-4.0%,-6.7%,?
O=C(N/N=C/c1cccnc1)C1CCCN(S(=O)(=O)c2ccccc2)C1 (stereo not given),5.3%,0.7%,-1.9%,-2.5%,-0.8%,8.5%,2.6%,-1.4%
Cc1ccc(-n2c(C)cc(/C=C3/C(=O)NC(=O)N(C)C3=O)c2C)cc1,-3.6%,14.7%,9.5%,13.4%,-1.0%,15.1%,3.6%,-16.2%
CCN(CC)CCCN1C=C2C(=O)C(C)(OC(=O)C3CCCC3)C(=O)C=C2C=C1c1ccsc1 (stereo not given),.,0.2%,.,3.5%,?,6.8%,1.0%,.
Cc1ccc(OCCn2c(CCCO)nc3ccccc32)cc1,1.1%,-22.3%,-3.2%,-14.1%,-19.4%,-15.9%,.,7.9%
CC(C)Cc1nnc(NC(=O)CCC(=O)N2CC(C)CC(C)C2)s1 (stereo not given),.,7.6%,.,-25.5%,.,-24.9%,-3.2%,.
COc1ccc(NC(=O)CN(c2ccc(OC)cc2)S(=O)(=O)c2c(C)nn(C)c2C)cc1,.,5.1%,.,6.1%,.,-2.0%,-2.0%,.
O=C(NC1CCN(C(=O)NCc2ccccc2)CC1)c1ccccc1,.,-18.6%,3.7%,-10.7%,13.6%[46.1 µM],3.3%,-0.9%,.
CCN(CC)S(=O)(=O)c1ccc(C)c(NC(=O)CNCc2ccccc2OC)c1,.,-6.7%,?,?,4.47µM*,-1.9%,-0.1%,.
COc1cc2c(cc1OC)[C@@H]1Cc3cc4c(cc3[C@H](C2)N1C)OCO4,-1.0%,8.7%,0.4%,0.1%,-33.3%,-10.3%,3.1%,5.0%
C1CNC2NCCNC2N1 (stereo not given),-0.1%,-6.5%,15.7%,-5.9%,?,0.5%,-4.4%,-8.0%
Cc1ccc2oc(-c3cccc(NC(=O)c4cccc5c(Br)cccc45)c3)nc2c1,0.1%,.,?,23.3%,.,.,.,-1.8%
COc1ccc(CC(=O)Oc2ccccc2C)cc1,.,1.0%,1.3%[46.1 µM],5.0%,-0.3%[46.1 µM],-3.7%,-5.0%,.
CC(C)(C)C(=O)NC(=C(Cl)Cl)P(=O)(O)O,7.0%,-1.4%,1.3%,-22.8%,14.6%,-0.5%,3.8%,-2.7%
Cc1ccc(-c2nnc(-c3ccc(NC(=O)c4ccco4)cc3)o2)cc1,-2.9%,-1.4%,11.5%,0.0%,?,?,-9.0%,?
CCCn1c(N)c(N2CCCCC2)c(=O)n(CC(=O)Nc2ccc(C(C)=O)cc2)c1=O,.,11.6%,9.0%,1.0%,12.9%,.,-1.6%,.
COc1cc(CN=Cc2c(O)n(Cc3ccccc3)c(=S)[nH]c2=O)cc(OC)c1,.,-13.5%,?,-12.4%,?,0.5%,-0.7%,.

# Continuation:
SMILES,Cruzain inh Det,RE007 growth inh,Lassa entry inh,2A StopGo,Marburg entry inh,NS1 inh,SARS PLP yeast,Cruzain inh noDet
CCOc1ccc(NC(=O)[C@H](C)NC(=O)C2CC(=O)N(c3ccc(OC)cc3)C2)cc1 (stereo not given in full),.,1.7%,.,-6.8%,.,2.0%,4.0%,.
Cn1c(CNC(=O)CCNC(=O)c2ccccc2)cc(=O)n(C)c1=O,.,-2.1%,.,-18.2%,.,-10.7%,18.9%,.
Clc1ccc(-n2ncc3c(NCCN4CCOCC4)ncnc32)cc1,1.9%,-8.8%,?,?,-15.8%&2.8%,-6.0%[9.22 µM],24.9%,-4.3%
Fc1ccccc1N1CCN(c2nc3ccccc3c3nc(-c4ccccc4)nn23)CC1,0.8%,.,.,0.0%,-1.0%[46.1 µM],.,.,-6.6%

# Screening data as filed in PubChem.
